LANA-H2B inh = blocks KSHV LANA binding to histone H2A/H2B | Q9QR71 | cell-free LANA-H2A/H2B peptide, fluorescence polarization | inhibition, % (concentration not given with the values) | actives 0.6% (n = 320,000) | AID 2629; in the data active = inhibition mostly above about 10%, no sharp cut-off; inactive = mostly below about 6.7%;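 note: stock transfer was 7.5 nL into about 10 µL; 0% = median of vehicle wells and 100% = median of positive control wells; one replicate is shown; the record names a cut of 25% in any replicate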
UCH37 inh = inhibitors of human deubiquitinating enzyme UCH37 | actives 0.33% (n = 330,000) | inhibition, % (concentration not given with the values) | purified proteasome/UCH37, Ub-AMC cleavage fluorescence | Q9Y5K5;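 active = mean of two replicates above 20%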;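 note: 0% = compound-free wells with enzyme and 100% = wells lacking proteasome; stock transfer was 100 nL into about 20 µL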
Target sequence (Q9Y5K5 whole entry, looked up): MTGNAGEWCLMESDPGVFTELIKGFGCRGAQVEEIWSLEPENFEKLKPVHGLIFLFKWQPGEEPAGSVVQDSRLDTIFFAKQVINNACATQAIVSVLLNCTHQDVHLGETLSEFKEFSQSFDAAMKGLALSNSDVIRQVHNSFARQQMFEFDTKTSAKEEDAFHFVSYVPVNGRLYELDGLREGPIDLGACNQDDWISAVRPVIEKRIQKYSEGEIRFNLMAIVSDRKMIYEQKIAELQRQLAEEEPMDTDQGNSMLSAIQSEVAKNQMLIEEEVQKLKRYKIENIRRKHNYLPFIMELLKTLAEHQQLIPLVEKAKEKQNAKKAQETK
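Material: human UCH37 enzyme supplied as purified proteasome complex / Amount: 0.15 nM proteasome as dispensed / Buffer or medium: pH 7.4 Tris-HCl (50 mM) with ovalbumin, ATP-MgCl2, DTT / Times: preincubation 30 min, reaction 25 min, room temperature / Technique: AMC fluorescence from Ub-AMC cleavage, excitation 355 nm, emission 460 nm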
E coli growth = inhibitors of Escherichia coli growth | OD600 absorbance (concentration not given with the values) | actives 0.21% (n = 330,000) | OD600, 23 h; hits give low values;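 active = OD600 absorbance below the run mean of sample wells minus 3.6 SD, in any replicate, cut at about 0.56 in these data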;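 note: stock transfer was 300 nL into about 60 µL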
B2AR ag = human beta-2 adrenergic receptor agonism by FAP. P07550. Am2.2-beta2AR cells, FAP receptor internalization, flow cytometry; reference of the scale not given here. response, % (concentration not given with the values). actives 0.43% (n = 340,000). AID 504454;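 active = response above a set limit, near 3 SD of response in nonfluorescent compounds, cut at about 42% in these data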;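 note: stock transfer was 100 nL into about 11 µL; a reference agonist was the positive control; negative values mostly stem from fluorescent compounds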
HNF4A DNA FP = change in binding of human HNF4 alpha to DNA; activity change, % at 10 µM; P41235; HNF4a-FITC DNA binding, fluorescence polarization, 1 h; AID 1224865; actives 0.3% (n = 360,000); in the data active = activity change above about 30%, passing the limit was not always enough;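 note: controls were the assay level and a saturating level of protein; the project sought stronger binding though the title names inhibitors; some compounds called inactive have numbers as strong as hits; positive values seem to mean higher polarization but the record does not say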
ALR H2O2 inh = human ALR oxidase inhibition via reduced H2O2; P55789; purified ALR, DTT oxidation, H2O2 HRP-luminol luminescence; inhibition, % (test concentration not listed); actives 3.8% (n = 290,000); AID 485317;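 active = mean and each replicate at 75% or more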;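 note: stock transfer was 7.5 nL into about 7.5 µL; 0% = neutral wells and 100% = wells with inactivated enzyme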
Target sequence (P55789 whole entry, looked up): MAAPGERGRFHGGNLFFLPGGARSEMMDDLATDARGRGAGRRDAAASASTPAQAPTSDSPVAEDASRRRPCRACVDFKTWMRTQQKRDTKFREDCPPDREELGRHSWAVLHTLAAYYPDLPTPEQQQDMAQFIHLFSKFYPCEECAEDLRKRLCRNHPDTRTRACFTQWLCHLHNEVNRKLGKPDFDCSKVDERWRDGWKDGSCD
FGF22 binding = shifts melting point of recombinant human FGF22; recombinant FGF22 thermal shift, SYPRO orange fluorescence; percent of sucrose octasulfate shift, DMSO zero; actives 1.5% (n = 340,000); calls only at 9.99 µM; Q9HCT0;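 active = melting point raised past a set limit in the mean and every replicate; three in four hits are not shown here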
Target sequence (Q9HCT0 whole entry, looked up): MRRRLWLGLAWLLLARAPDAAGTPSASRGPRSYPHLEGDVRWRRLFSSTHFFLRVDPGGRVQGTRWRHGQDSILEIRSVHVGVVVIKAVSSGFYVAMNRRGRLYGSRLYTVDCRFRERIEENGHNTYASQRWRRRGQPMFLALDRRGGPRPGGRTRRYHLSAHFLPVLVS
The depositor's hits bear a star; i = inactive; · = no result given. Some of the compounds tested; rates above refer to the full screens.

The opening 5 entries, to show the layout:
Second line of a record: UCH37 inh, FGF22 binding, B2AR ag, ALR H2O2 inh, E coli growth, LANA-H2B inh, HNF4A DNA FP
> CCOc1ccc(NC(=O)C2CC(=O)N(C)C(=Nc3ccc4c(c3)OCO4)S2)cc1 (centres undefined)
 : 3.2, i, 2, -3, 0.72, -1.1, -0.5
> CCOC(=O)Cc1csc(NC(=O)CSc2nnc(-n3nc(C)cc3C)c3ccccc23)n1
 : -0.8, ·, 0, 17, 0.7, 0.1, -2.4
> COC(=O)c1cc(Br)c(=O)n(-c2ccccc2F)c1
 : -0.7, ·, 2, -4, 0.7, -4.1, 1.6
> c1ccc(-c2oc3ncnc(NCCCn4ccnc4)c3c2-c2ccccc2)cc1
 : -94, ·, 8, -7, 0.65, -1.5, 1.5
> CCOC(=O)C1=C(N)Oc2cc(O)ccc2C1c1ccc([N+](=O)[O-])cc1 (centres undefined)
 : 2.8, i, 0, 43, 0.69, -2.0, -1.2

The list itself (from the top)
Second line of a record: UCH37 inh, FGF22 binding, B2AR ag, ALR H2O2 inh, E coli growth, LANA-H2B inh, HNF4A DNA FP
> CCOc1ccc(NC(=O)C2CC(=O)N(C)C(=Nc3ccc4c(c3)OCO4)S2)cc1 (centres undefined)
 : 3.2, i, 2, -3, 0.72, -1.1, -0.5
> CCOC(=O)Cc1csc(NC(=O)CSc2nnc(-n3nc(C)cc3C)c3ccccc23)n1
 : -0.8, ·, 0, 17, 0.7, 0.1, -2.4
> COC(=O)c1cc(Br)c(=O)n(-c2ccccc2F)c1
 : -0.7, ·, 2, -4, 0.7, -4.1, 1.6
> c1ccc(-c2oc3ncnc(NCCCn4ccnc4)c3c2-c2ccccc2)cc1
 : -94, ·, 8, -7, 0.65, -1.5, 1.5
> CCOC(=O)C1=C(N)Oc2cc(O)ccc2C1c1ccc([N+](=O)[O-])cc1 (centres undefined)
 : 2.8, i, 0, 43, 0.69, -2.0, -1.2
> Cc1ccc(C(N)=O)cc1S(=O)(=O)Nc1cccc(C)c1C
 : 0.6, ·, 0, -10, 0.73, 2.2, 0.4
> O=C(COc1ccccc1)Nc1cccc2c1CCCC2
 : -0.1, ·, -9, -9, 0.75, 4.9, 0.2
> COc1ccccc1NC(=O)c1cc(C(=O)Nc2ccccc2OC)cc(N2C(=O)CCC2=O)c1
 : -2.7, ·, -4, -7, 0.74, -1.5, 1.6
> COc1ccc(C(=O)Nc2ccc(Cl)cc2C(=O)NCCO)cc1
 : -4.3, ·, 2, -2, 0.67, -4.5, -3.4
> COc1ccc(C2(CNC(=O)c3ccc(C)cc3)CCOCC2)cc1
 : 0.8, i, -7, 5, 0.65, -2.6, -0.9
> Cc1cccc(C)c1OCC(=O)NNC(=O)CCCn1c(=O)oc2ccccc21
 : 2.8, i, -20, -9, 0.7, 0.7, 1.2
> C=CCC[C@H](Cc1ccc(F)cc1)C(=O)OC[C@@H]1CCCN1C(=O)[C@@H](CC=C)CC(=O)NCCO
 : -1.0, i, 4, -2, ·, 13, 6.6
> CCNC(=S)NN=C1CCC(C(C)(C)C)CC1 (centres undefined)
 : 5.8, ·, 4, 3, 0.67, 4.1, -1.7
> COc1ccc2c(c1)C[C@]1(C)c3ccccc3C(=O)N(Cc3ccccc3)[C@H]21
 : 5.3, i, 8, ·, ·, ·, 2.4
> O=c1cc(-c2ccccc2)nc2nc(CCc3ccccc3)[nH]n12
 : 4.3, ·, 16, 2, 0.67, -1.3, 1.6
> CCCn1c(N)c(C(=O)CSc2n[nH]c(-c3ccc(C)cc3)n2)c(=O)[nH]c1=O
 : 5.2, i, 3, 18, 0.74, 9.2, 4.7
> O=C(NNc1cccc(Cl)n1)c1ccc(Cl)nc1
 : 4.7, i, 0, 26, 0.69, 18, 0.1
> COc1ccc(CCNC(=S)Nc2ccc(S(=O)(=O)Nc3ncccn3)cc2)cc1OC
 : 1.5, i, -7, 33, 0.69, -0.4, 0.6
> Cn1cccc1C1CCCN1CC(=O)Nc1ccc(C(N)=O)cc1 (centres undefined)
 : -0.7, i, -7, 19, 0.67, 0.6, 11
> O=C(OCc1ccccc1C(F)(F)F)c1cc([N+](=O)[O-])ccc1N1CCOCC1
 : 3.6, i, 22, -5, 0.68, -1.7, 1.4
> O=C(NC1CCCCC1)n1c(=O)oc2cc(S(=O)(=O)N3CCCCC3)ccc21
 : 1.4, ·, -3, 0, 0.73, -4.0, -2.0
> C/C(=N\OC(=O)c1ccc(F)cc1)c1sc(-c2ccccc2)nc1C
 : ·, ·, 1, -1, ·, -2.5, -1.8
> Cc1noc(C)c1COc1ccc(C(=O)NCc2cccs2)cc1
 : 0.2, ·, 5, 0, 0.63, -4.3, -2.2
> O=C(N/N=C\c1cccc(Br)c1)c1ccccc1-n1cccc1
 : ·, ·, 19, 2, ·, -4.7, -1.2
> COc1ccc(CC(=O)NC(C)(C)CC(C)=O)cc1OC
 : 2.1, ·, 1, -4, 0.79, -0.4, -4.7
> CC(C)[C@H](Nc1ccc(S(=O)(=O)N2CCOCC2)cc1[N+](=O)[O-])C(=O)OCC(=O)N(C(C)C)C(C)C
 : 4.9, ·, 2, -95, 0.69, 8.4, -3.7
> O=C(CSc1n[nH]c(=O)[nH]c1=O)NC1CCCCC1
 : 1.4, i, -8, 1, 0.71, -3.2, 0.1
> Cc1ccc(NC(=O)CSCC(=O)N2c3ccccc3CCc3ccccc32)cc1
 : 0.2, ·, -5, -48, 0.72, -0.4, -2.8
> Cc1cccc(Nc2nnc(-c3ccc(C(=O)N4C[C@H]5C[C@H](C4)c4cccc(=O)n4C5)cc3)c3ccccc23)c1
 : 3.1, ·, 85*, 52, 0.73, -1.0, 1.7
> CC(C)C(=O)N1CCC2(CC1)Oc1ccc(Cl)cc1C(=O)C21CC(c2cccnc2)=NO1 (centres undefined)
 : 1.3, i, -11, 0, 0.69, 7.0, -2.0

4 of the compounds above, field by field:
SMILES: O=C(COc1ccccc1)Nc1cccc2c1CCCC2
  UCH37 inh = -0.1
  FGF22 binding = ·
  B2AR ag = -9
  ALR H2O2 inh = -9
  E coli growth = 0.75
  LANA-H2B inh = 4.9
  HNF4A DNA FP = 0.2

SMILES: COc1ccccc1NC(=O)c1cc(C(=O)Nc2ccccc2OC)cc(N2C(=O)CCC2=O)c1
  UCH37 inh = -2.7
  FGF22 binding = ·
  B2AR ag = -4
  ALR H2O2 inh = -7
  E coli growth = 0.74
  LANA-H2B inh = -1.5
  HNF4A DNA FP = 1.6

SMILES: COc1ccc(C(=O)Nc2ccc(Cl)cc2C(=O)NCCO)cc1
  UCH37 inh = -4.3
  FGF22 binding = ·
  B2AR ag = 2
  ALR H2O2 inh = -2
  E coli growth = 0.67
  LANA-H2B inh = -4.5
  HNF4A DNA FP = -3.4

SMILES: COc1ccc(C2(CNC(=O)c3ccc(C)cc3)CCOCC2)cc1
  UCH37 inh = 0.8
  FGF22 binding = i
  B2AR ag = -7
  ALR H2O2 inh = 5
  E coli growth = 0.65
  LANA-H2B inh = -2.6
  HNF4A DNA FP = -0.9

Following part.
Second line of a record: UCH37 inh, FGF22 binding, B2AR ag, ALR H2O2 inh, E coli growth, LANA-H2B inh, HNF4A DNA FP
> Cc1cc(C)nc(SCCS(=O)(=O)Cc2ccc(Cl)cc2)n1
 : 2.1, ·, -10, -2, 0.74, 0.7, -0.6
> COc1ccccc1N1CCN(CCCN2C(=O)C3CCCCN3C2=O)CC1 (centres undefined)
 : ·, i, -2, ·, ·, ·, 3.7
> COc1cc(CNCC(O)c2ccccc2)ccc1OCc1ccc(Cl)nc1 (centres undefined)
 : 5.3, ·, -10, -32, 0.68, -6.3, 0.7
> CCn1ncc(Br)c1C(=O)Nc1ccn(C23CC4CC(CC(C4)C2)C3)n1
 : 3.9, ·, 0, -2, 0.74, -0.7, -3.0
